Sfp inh – inhibitors of Bacillus subtilis Sfp phosphopantetheinyl transferase; Q9F4F7; Biochemical Sfp PPTase activity, qHTS; Potency, µM, inactives show max response, negative = inhibition, usual class: inhibitors; 310,000 compounds, 3.5% hits; AID 1490; active means well fitted inhibition curve with a large enough effect; inconclusive means small, poorly fitted or top-dose-only effect, or another doubt; inactive means no such curve, though single readings can be large or run the other way;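 further: the enzyme is Sfp with the accession as filed and its product quenches rhodamine fluorescence; potency means the concentration at half of the fitted maximal effect; 0% = enzyme reaction without inhibitor and -100% = no enzyme wells; top concentration of the series not given in the record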
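Step 1, compound plus 15 nM Sfp-PPTase, 15 min, room temperature. Step 2, add rhodamine-CoA (5 uM) and BHQ-2-YbbR (12.5 uM). Step 3, read 525/598 nm fluorescence at 0 and 30 min.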
TRPML1 blocker – inhibitors of human TRPML1 channel. Q9GZU1. TRPML1-inducible cells, Ca2+ dye fluorescence, FDSS; stronger effect = lower value; inhibition of EC80 agonist-evoked calcium signal. activity change, negative = inhibition, % (concentration not given with the values). 390,000 compounds, 0.02% hits; in the data active means activity change below about -50%; inconclusive means about -30% to -50%; inactive means above about -30%;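 further: stimulus is agonist 54-4 at its EC80 concentration; on the % scale 0 is the no-effect control and ±100 the full control effect; the text of the record puts the active cut at -80%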
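Calcium fluorescence in TRPML1-DL cells induced overnight with Tet: a 110 s read after compound pin addition, then a 110 s antagonist read after challenge with 54-4 at 4 uM final (EC80).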
Menin-MLL FL inh – inhibitors of human menin-MLL interaction, wild-type MLL peptide. FP activity change, % at 61.4 µM. 290,000 tested, under 10 active. AID 1766. Fluorescence polarization, fluorescein-MLL peptide displacement from menin; inconclusive = falling polarisation curve, or a change in total fluorescence; inactive = total fluorescence flat and polarisation flat or rising; no compound was filed as active; the % refers to the polarisation; negative = inhibition;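 further: % of control where 0% means no effect; inhibitors lower the polarisation; unlabelled MLL peptide was the positive control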
gsp ag – agonists of gsp mutant (McCune-Albright syndrome); AID 624287; Potency, µM (doses to about 76.9 µM), for inactives: at the highest dose activation (cAMP increase), actives largely listed as activators; 340,000 compounds, 0.13% hits; gsp mutant cells, cAMP HTRF, 30 min; control for the full effect not named in the record; active = well fitted activation curve with a large enough effect; inconclusive = small, poorly fitted or top-dose-only effect, or another doubt; inactive = no such curve, though single readings can be large or run the other way; cell line not stated here;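 further: phosphodiesterase inhibitor Ro 20-1724 added with compounds to block cAMP breakdown; potency means the concentration at half of the fitted maximal effect; nearly all actives have a fitted effect of over 60% in size; about a fifth of the inactives were tested at one dose only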
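Cells stably selected in G418 were plated at 2000/well, grown 16-24 hr, then given compounds in DMSO with the PDE inhibitor […] (300 uM solution added) for 30 min at 37C; cAMP was read by HTRF.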
TRPV1 potentiator – human TRPV1 potentiation | Q8NER1 | TRPV1-expressing cells, Fluo-8 calcium influx, capsaicin EC20 potentiation; host cell line not named in the record; control for the full effect not named in the record | potentiation, % at 8.33 µM | 320,000 compounds, 0.02% hits; active means potentiation above 80%; inconclusive means 30% to 80%; inactive means below 30%; further: 0% is about no effect
Target sequence (Q8NER1 whole entry, looked up): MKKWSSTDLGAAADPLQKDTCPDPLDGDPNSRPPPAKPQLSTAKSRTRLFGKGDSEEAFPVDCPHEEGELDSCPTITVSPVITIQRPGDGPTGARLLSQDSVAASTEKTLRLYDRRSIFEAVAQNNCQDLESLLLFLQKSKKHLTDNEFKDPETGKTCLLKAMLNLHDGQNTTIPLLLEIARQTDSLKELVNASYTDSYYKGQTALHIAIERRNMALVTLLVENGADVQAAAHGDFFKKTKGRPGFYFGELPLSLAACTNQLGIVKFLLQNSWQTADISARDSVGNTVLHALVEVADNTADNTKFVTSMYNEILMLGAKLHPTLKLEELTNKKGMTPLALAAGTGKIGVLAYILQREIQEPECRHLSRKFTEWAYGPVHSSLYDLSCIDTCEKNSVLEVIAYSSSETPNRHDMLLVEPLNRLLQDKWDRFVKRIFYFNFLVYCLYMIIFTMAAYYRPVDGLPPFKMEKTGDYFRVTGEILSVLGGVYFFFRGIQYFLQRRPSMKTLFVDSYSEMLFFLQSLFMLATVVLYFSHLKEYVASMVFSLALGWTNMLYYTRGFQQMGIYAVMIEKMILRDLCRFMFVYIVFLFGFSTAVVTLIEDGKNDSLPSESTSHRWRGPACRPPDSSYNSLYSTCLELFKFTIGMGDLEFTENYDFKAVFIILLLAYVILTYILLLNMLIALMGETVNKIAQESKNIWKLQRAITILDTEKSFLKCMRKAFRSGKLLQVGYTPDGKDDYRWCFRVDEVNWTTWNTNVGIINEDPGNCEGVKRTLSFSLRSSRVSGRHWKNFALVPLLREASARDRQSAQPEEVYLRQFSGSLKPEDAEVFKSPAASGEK
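Cells expressing TRPV1 were dye-loaded with Fluo-8 and read kinetically: 10 s baseline, 3 min after compound (agonist portion), then 2 min after EC20 capsaicin (allosteric enhancer portion). Calcium-bound dye fluorescence at 480/520 nm.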
ClpP mod – qHTS Assay for Activators of ClpP | purified B. subtilis ClpP, FRET peptide cleavage, 20 min | 340,000 compounds, 1.9% hits | Potency, µM (highest dose often 57.5 µM), for the others: at the top dose activity change, negative = active | AID 651965, 2013 | ATP-dependent Clp protease proteolytic subunit (Bacillus subtilis (strain 168)), P80244; active = well fitted falling curve with a large enough effect; inconclusive = small, poorly fitted or top-dose-only effect; inactive = no such curve, though single readings can be large or run the other way; further: potency means the concentration at half of the fitted maximal effect; the source files actives as falling curves though it sought activators and does not explain the sign; nearly all actives have a fitted effect of over 65% in size; many hits overshoot -100%
Target sequence (P80244 whole entry, looked up): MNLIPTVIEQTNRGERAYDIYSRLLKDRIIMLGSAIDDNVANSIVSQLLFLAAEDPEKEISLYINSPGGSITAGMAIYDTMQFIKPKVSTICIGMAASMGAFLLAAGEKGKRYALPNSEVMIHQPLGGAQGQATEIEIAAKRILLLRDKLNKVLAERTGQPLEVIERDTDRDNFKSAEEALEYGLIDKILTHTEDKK
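FRET quenching reversal measured ClpP activation: 10 microg/mL B. subtilis ClpP at pH 8 with the FRET-FV decapeptide, read at 430 nm after 320 nm excitation. The 20-min minus 0-min signal was scaled between DMSO/no-enzyme wells and ADEP (5.8 microM final).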
gsp antag – antagonists of gsp mutant (McCune-Albright syndrome). gsp-mutant cells, cAMP HTRF, 30 min; control for the full effect not named in the record. Potency, µM (highest dose often 76.9 µM), inactives show at the highest dose activity change, negative = inhibition, actives largely listed as inhibitors. 340,000 compounds, 0.4% hits; active = falling curve of any shape with a large fitted effect; inconclusive = falling curve, mostly with a smaller effect; inactive = flat or rising curve; cell line not stated here;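 further: intracellular cAMP measured with PDE inhibitor Ro 20-1724 present during compound exposure; potency means the concentration at half of the fitted maximal effect; on the % scale 0 is the no-effect control and ±100 the full control effect; nearly all actives have a fitted effect of over 65% in size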
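Cells in G418 medium, seeded 16-24 h, 37C; buffer exchange to DPBS + 1 mM CaCl2, 0.5 mM MgCl2, 0.05% BSA; cpds in DMSO + […] (300 uM stock), 30 min 37C; HTRF cAMP detection.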
Active calls of the source: *; ? = inconclusive; / = no result given; & = joins results of further samples; [ ] = dose if it differs, or a comment. Outcome played no part in choosing rows. Share with any hit: about 4.9%.

SMILES	Sfp inh	TRPML1 blocker	Menin-MLL FL inh	gsp ag	TRPV1 potentiator	ClpP mod	gsp antag
Cc1cccc(C2(c3cccc(C)c3)CC2C(=O)Nc2ccc([N+](=O)[O-])cc2O)c1 (stereo not given)	11%	-4	3.2	-54%[inhibitor]	11	1.4%	?
CCOC(=O)N1CCC(N2CCCC(C(=O)c3cc(F)ccc3OC)C2)CC1 (stereo not given)	11%	-13	2.2	?	13	/	5%
O=C(c1ccncc1)N1CCN(CCc2ccccc2)CC1	9%	-16	-0.1	23%	0	1.8%	-8%
CC(C)CNC(=O)c1cc(=O)[nH]c2ccc(S(=O)(=O)Nc3ccc(F)cc3)cc12	12%	-20	0.3	-25%	4	/	2%
O=C(Nc1ccc(S(=O)(=O)NCC2CCCO2)cc1)c1cccc(F)c1 (stereo not given)	-1%	7	-4.7	-30%[inhibitor]	7	/	9%
COC(=O)c1c(N)c(C#N)c(C)n1-c1ccccc1	3%	8	-2.1	12%	2	0.4%	-7%[15.4 µM]
c1ccc(-c2ccc(-n3ccnc3)cc2)cc1	10%	1	1.1	-15%	1	-1.8%	-11%
COC(=O)c1ccc(/C=N/NC(=O)C2CC(=O)N(c3ccc(OC)cc3)C2)cc1 (stereo not given)	-1%	-16	-5.6	?	-20	0.3%	4%
O=C1NC(c2ccc3c(c2)OCO3)Oc2ccccc21 (stereo not given)	16%	0	5.1	-48%[inhibitor]	11	?	6%
O=C(O)CC1(CC(=O)NCc2cc(F)cc3c2OCOC3)CCCCC1	10%	-2	5.1	-10%[15.4 µM]	/	0.6%	10%
Cc1c(C(=O)N2CCCCC2)c(S(=O)(=O)N2CCC(C)CC2)c(C)n1C	25%	2	2.6	11%	0	2.0%	-7%
NC(Cc1c[nH]c2ccccc12)C(=O)NCc1ccccc1 (stereo not given)	23%	8	8.4	-34%[inhibitor]	-10	/	10%
O=C(NCCCn1ccnc1)c1csc2ccccc12	8%	28	0.4	-42%[inhibitor]	?	-1.2%	1%
COC(=O)C1=C(C)N(c2cc(Cl)cc(Cl)c2)C(=O)C1	3%	-17	0.5	7%	7	-2.6%	-4%
Cc1ccc(NC(=S)N(CCCN2CCOCC2)Cc2ccccn2)cc1	-7%	-1	/	-6%[15.4 µM]	-3	-27%	10%
O=C(Cc1ccccc1)Nc1ccc2c(c1)C(=O)N(CC1CCCO1)C2=O (stereo not given)	10%	3	-2.0	19%	-14	3.3%	-3%
COc1ccc(/C=c2/sc3n(c2=O)C(c2ccccc2OC)C2=C(N=3)c3ccccc3CC2)cc1O (stereo not given)	-37%	1	1.2	?	3	3.3%	-5%
CCn1c(=O)cc(SCC(=O)NCc2ccc(C)cc2)c2ccccc21	-6%	-7&2	4.4	11%	1	-25%&-24%	-4%
Oc1c(C(c2ccco2)N2CCC3(CC2)OCCO3)sc2ncnn12 (stereo not given)	28µM*	-4	11	-3%	/	-1.1%	4%
NC(=O)CCC(=O)N1CCCC(C(=O)c2ccc3c4c(cccc24)CC3)C1 (stereo not given)	11%	-9	-1.0	-16%	15	4.1%	-11%
Cc1ccccc1-n1cc[nH]c1=S	-12%	-13	0.2	10%[15.4 µM]	-3	/	-11%
C/C(=N\NC(=O)c1sccc1C)c1cccnc1	15%	5	1.9	-3%	10	0.4%	7%
Cc1nc(CCN2C(=O)c3ccccc3C2=O)cs1	79µM*	9	2.8	-12%	10	-1.8%	1%
COc1ccc(NC(=O)c2cnc(SC)nc2C)c(OC)c1	6%	1	8.5	3%	-9	/	13%
CCCC(=O)Oc1c(S(=O)(=O)c2ccc(C)cc2)c(C)nn1C(C)(C)C	5%	/	0.0	?	2	0.2%	-8%
Cc1ccnc(NC(=O)c2ccc(Cl)c(S(=O)(=O)N3CCCC3)c2)c1	/	-5	/	24%[15.4 µM]	8	/	-10%
COc1ccc(S(=O)(=O)Nc2cccc3c2O[C@H](CN(C)C(=O)Nc2ccc4c(c2)OCO4)[C@@H](C)CN([C@H](C)CO)C3=O)cc1	/	4	/	/	/	-1.5%	-20%
Cc1ccccc1CC(=O)N1CCCC1	16%	/	-5.4	23%	0	2.0%	5%
CC(C)(C)NC(=O)COC(=O)c1ccc(O)cc1	?	-3	-0.2	4%	-2	1.3%	8%
O=C(O)c1[nH]c2ccccc2c1C(c1c(F)cccc1Cl)c1c(C(=O)O)[nH]c2ccccc12	12%	-27	-5.6	-24%	7	2.2%	10%

Compound profiles, from the list above. Order of values: Sfp inh | TRPML1 blocker | Menin-MLL FL inh | gsp ag | TRPV1 potentiator | ClpP mod | gsp antag
`CCn1c(=O)cc(SCC(=O)NCc2ccc(C)cc2)c2ccccc21` in the list: -6% | -7&2 | 4.4 | 11% | 1 | -25%&-24% | -4%
`Cc1ccnc(NC(=O)c2ccc(Cl)c(S(=O)(=O)N3CCCC3)c2)c1` in the list: / | -5 | / | 24%[15.4 µM] | 8 | / | -10%

Continuation.
SMILES	Sfp inh	TRPML1 blocker	Menin-MLL FL inh	gsp ag	TRPV1 potentiator	ClpP mod	gsp antag
Cc1cccc(OCCCC(=O)NCCc2ccccc2)c1	-1%	12	4.4	20%	2	-1.4%	2%
O=C(Nc1nc(-c2ccc3ccccc3c2)cs1)C1CCN(S(=O)(=O)c2cccs2)CC1	-12%	-8	4.2	0%	8	-14%	-2%
CC1CN(C(=O)CN2C(=O)NC(C)(c3ccccc3)C2=O)CC(C)O1 (stereo not given)	3%	0	1.3	-4%	1	4.7%	5%
CN1CCN(S(=O)(=O)c2ccc(NC(=S)NC(=O)C3CCCCC3)cc2)CC1	-16%	-7	-2.7	-5%	6	/	13%
COCCNS(=O)(=O)c1cc2[nH]c3c(c2cc1C)C(=O)CC(C)(C)C3	8%	6	2.3	?	2	/	-8%
COc1ccccc1NS(=O)(=O)c1cc(C(=O)N2CCCC2)ccc1F	/	8	/	-5%[15.4 µM]	-8	0.3%	-1%
CCC(=O)N1CCN(c2ccccc2NC(=O)COc2cccc(C)c2)CC1	7%	31	5.6	17%	-14	-0.7%	-17%
Cc1ccc(OCCOC(=O)c2cccc(S(=O)(=O)N3CC(C)OC(C)C3)c2)cc1 (stereo not given)	/	13	/	-16%	-5	1.4%	-19%
COc1cccc(NS(=O)(=O)c2ccc(S(=O)(=O)N3CCCC3)cc2)c1	/	64	/	-9%	-9	1.1%	-8%
Cc1cc(C)c2nc(NC(=O)c3cccc(S(=O)(=O)N4CCc5ccccc54)c3)sc2c1	-8%	22	4.7	-2%[15.4 µM]	-4	3.4%	16%
Cn1c(C2CCCCC2)nc2c1c(=O)[nH]c(=O)n2Cc1ccccc1	13%	5	5.2	?	-12	-0.4%	5%
CCc1cc(C(=O)Nc2cc(S(=O)(=O)N(CC)CC)ccc2N2CCOCC2)sc1C	/	11	/	32%	0	?	-22%
Clc1ccc(-c2ccc(C=Nc3ccc(N4CCOCC4)cc3)o2)c(Cl)c1	-8%	7	0.4	24%	12	/	12%
CSCC[C@H](NC(=O)c1cccc(S(=O)(=O)N2CCN(C)CC2)c1)c1nc2ccccc2[nH]1	/	8	/	?	/	/	1%
NC(=O)CC(NC(=O)Cc1ccc(Br)cc1)c1ccc(NCc2ccccn2)c([N+](=O)[O-])c1 (stereo not given)	-23%	-8	-7.3	/	4	-0.6%	0%
CCN(CC)c1cc(C(F)(F)F)nc(-c2ccccn2)n1	19%	0	-0.4	-24%	6	-6.2%	-14%
Cc1ccc(-n2ncc3c(NNC(=O)c4ccco4)ncnc32)cc1Cl	7%	-8	-8.0	25%	-4	-1.6%	-5%
Cc1nnc(NC(=O)c2cccc(Br)c2)s1	16%	0	0.3	-35%[inhibitor]	-4	0.8%	-15%
O=C(/C=C/c1ccco1)c1cccnc1	50µM*	0	5.0	4%	4	-3.3%	-2%
COc1ccc(C(CC(=O)N2CCCCC2)c2c(OC)cc(OC)c3c(-c4ccccc4)cc(=O)oc23)cc1 (stereo not given)	-11%	13	-0.3	12%	-18	?	-8%
COc1ccc(C2CC(c3ccccc3)=NN2C(=O)COC(=O)c2cccc(O)c2)cc1 (stereo not given)	/	3	/	3%	/	/	-13%
COCCNc1nc2nonc2nc1N(C)Cc1ccc(C)cc1	-2%	-12	0.0	11%	-3	-0.9%	-9%
Cc1cc(Cl)ccc1OCCCC(=O)NNC(=O)c1ccccc1O	/	20	/	-1%[15.4 µM]	?	/	-5%
CCOCc1nnc(NC(=O)CCc2ccccc2)s1	16%	-2	2.8	-1%	4	-1.7%	2%
CCOc1ccc(CCNC(=O)CCS(=O)(=O)c2ccc(OC)cc2)cc1OCC	8%	-5	0.4	-11%	11	-0.7%	-3%
Cc1ccc(NC(=O)Nc2sc(=S)n(C)c2C)cc1	56µM*	-9	4.7	-18%	2	0.6%	-15%
CCOc1ccccc1Nc1nnc(SCC(=O)N2CCCC2)s1	4%	-15	3.2	-6%	15	-1.3%	0%
CCc1nnc(NC(=O)CSc2nc3cc4c(cc3cc2C)OCCO4)s1	11%	-1	8.7	22%	10	-9.8%	6%
CCC(c1nnnn1C(C)(C)C)N1CCN(Cc2ccccc2OC)CC1 (stereo not given)	12%	37	1.5	7%	-12	-0.7%	7%
CCCc1cc(=O)[nH]c(SCC(=O)N(CC)Cc2ccccc2)n1	11%	-1	1.2	-28%	1	-1.4%	-9%
Cc1nc(C)c(C(=O)C2=C(O)C(=O)N(CCCn3ccnc3)C2c2ccc(Cl)cc2)s1 (stereo not given)	24%	-5	11	?	-2	-1.9%	13%
CC(=O)Nc1ccc(NC(=O)Cn2nc(C(=O)Nc3ccc(C)cc3)ccc2=O)cc1	25%	14&14	2.5	3%	-1&-2	0.0%&-2.4%	9%
S=C(NCc1ccco1)N1CCN(c2cccc(Cl)c2)CC1	-24%	-7	0.1	-34%	-2	-4.2%	?
Cc1cc(C)c2nc(NC(=O)C3CSC4(C)CCC(=O)N34)sc2c1 (stereo not given)	/	-9	/	-38%[inhibitor]	-2	1.0%	1%
COc1cc2c(cc1OC)C(c1ccccc1Cl)N(C)CC2 (stereo not given)	-13%	-4	3.9	-2%	14	0.3%	4%

Source: PubChem
